Screening data (PubChem)
KAT2A inh: blocks human GCN5L2 histone acetyltransferase | GCN5L2 HAT assay, ThioGlo1 CoA-SH fluorescence | Potency, µM (titrated, usually from 58.9 µM), without a hit: at the highest dose activity change, negative = inhibition, hits mostly inhibitors | hit rate 0.21% among 390,000 | AID 504327; active means well fitted inhibition curve with a large enough effect; inconclusive means small, poorly fitted or top-dose-only effect, or another doubt; inactive means no such curve, though single readings can be large or run the other way
Target sequence (Q92830 whole entry, looked up): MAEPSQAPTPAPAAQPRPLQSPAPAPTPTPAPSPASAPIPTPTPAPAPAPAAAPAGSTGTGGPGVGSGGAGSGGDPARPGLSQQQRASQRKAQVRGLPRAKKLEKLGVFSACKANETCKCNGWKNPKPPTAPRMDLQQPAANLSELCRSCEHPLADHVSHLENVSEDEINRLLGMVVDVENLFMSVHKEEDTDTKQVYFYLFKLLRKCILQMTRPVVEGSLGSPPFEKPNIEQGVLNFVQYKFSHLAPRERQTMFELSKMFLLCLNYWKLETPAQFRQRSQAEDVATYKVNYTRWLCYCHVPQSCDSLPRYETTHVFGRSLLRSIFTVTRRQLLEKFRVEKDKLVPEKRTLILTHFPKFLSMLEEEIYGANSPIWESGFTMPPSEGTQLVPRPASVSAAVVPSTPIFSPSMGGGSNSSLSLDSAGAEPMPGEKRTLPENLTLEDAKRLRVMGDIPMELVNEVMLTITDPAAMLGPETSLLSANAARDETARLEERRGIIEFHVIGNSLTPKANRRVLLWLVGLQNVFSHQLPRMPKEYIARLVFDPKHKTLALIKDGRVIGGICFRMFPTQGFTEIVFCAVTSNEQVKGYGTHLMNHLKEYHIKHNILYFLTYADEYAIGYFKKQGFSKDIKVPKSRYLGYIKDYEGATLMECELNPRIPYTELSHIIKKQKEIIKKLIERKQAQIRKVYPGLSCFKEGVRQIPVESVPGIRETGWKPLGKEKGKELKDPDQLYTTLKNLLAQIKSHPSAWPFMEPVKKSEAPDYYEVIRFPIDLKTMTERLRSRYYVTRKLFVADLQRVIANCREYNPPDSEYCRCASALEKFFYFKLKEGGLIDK
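Preincubate 20nM GCN5L2 with compound 15 min, RT → add 50uM ThioGlo1 + 75uM H3(1-25) + 70uM acetyl-CoA → read fluorescence 0 and 20 min. Primary qHTS; fluorescent artifacts likely.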
* hit, by the source's call; ? = inconclusive; & = joins results of further samples; [ ] = remark or other dose. On the % scale 0 is the no-effect control and ±100 the full control effect; potency means the concentration at half of the fitted maximal effect. Only part of the results is shown, and most or all hits are left out here.

SMILES	KAT2A inh
Cc1ccc(S(=O)(=O)NN2Cc3ccccc3C2=N)cc1	-3%
O=C(Cc1ccc(S(=O)(=O)N2CCOCC2)s1)Nc1cc(C(F)(F)F)cc(C(F)(F)F)c1	-17%
O=C(/C=C/c1ccc(Cl)cc1)Nc1ccc(CN2CCOCC2)cc1	-4%
Nc1c([N+](=O)[O-])c(=O)sc2ccccc12	-3%
CNC(=O)COC(=O)CCC(=O)c1ccc(Cl)cc1	-12%
CCOC(=O)C1=C(COC(=O)c2ccc(Br)o2)NC(=O)NC1C (configuration not stated)	2%
COc1ccc(CCNC(=O)c2cccc(-n3cnc4cccnc43)c2C)cc1OC	-5%
Cc1ccc(C(=O)NCCOc2cccc3cccnc23)cc1Cl	-13%
O=Cc1cccn1Cc1ccccc1[N+](=O)[O-]	1%
CS(=O)(=O)N(CC(=O)N1CCCCC1)c1cccc(F)c1	-2%
CC1CN(S(=O)(=O)c2ccc(C(=O)Nc3ccc(S(=O)(=O)Nc4ncccn4)cc3)cc2)CC(C)O1 (configuration not stated)	0%
COc1ccc(CCNC(=O)COC(=O)/C=C/c2ccc3c(c2)OCO3)cc1	1%
CC(=O)Nc1nnc(SCC(=O)N2CCN(Cc3ccccc3)CC2)s1	4%
O=C(O)c1ccc2c3c(cccc13)C(=O)N(c1cccc3ccccc13)C2=O	-1%
Cc1ccc(SCCNC(=O)/C=C/c2cccc([N+](=O)[O-])c2)cc1	-5%
N#CCCN1CCN(S(=O)(=O)c2ccc(S(=O)(=O)NCC3CCCO3)cc2)CC1 (configuration not stated)	-13%
CC1CCCC(NC(=O)c2cccc(N3CCCC3=O)c2)C1C (configuration not stated)	1%
COc1cccc(OC)c1OCCCOc1cccc2cccnc12	1%
Cc1[nH]c2ccccc2c1C(=O)CSc1ncn[nH]1	-1%
COC(=O)c1sccc1NC(=O)COc1ccc(Cl)cc1	-2%
O=[N+]([O-])c1ccc(N2CCCCC2)c(-c2nn[nH]n2)c1	-5%
O=C(CNC(=O)C12CC3CC(CC(C3)C1)C2)OCC(=O)N1CCCCC1	2%
COc1ccc(O)c(CNn2c(-c3ccc(Br)cc3)nc3ccccc3c2=O)c1	-2%
CC(NCCO)C(=O)C12CC3CC(CC(C3)C1)C2 (configuration not stated)	-10%
Cc1ccc(NC(=O)N2CCCC2C(=O)Nc2ccc3c(c2)OCCO3)cc1 (configuration not stated)	-4%
Remaining list, next part.
SMILES	KAT2A inh
CC(=O)NC(CCS(C)(=O)=O)C(=O)N1CCc2ccccc21 (configuration not stated)	-29%
CC(C)OCC1Cn2c(nc3c2c(=O)n(C)c(=O)n3C)O1 (configuration not stated)	11%
COCCNC(=O)c1ccccc1NC(=O)c1ccc(OC)c(OC)c1	-1%
CCC1(C)Cc2nc(Cl)c(C#N)cc2CO1 (configuration not stated)	-7%
CCC(=O)N1c2ccc(S(=O)(=O)CCC(=O)N3CCn4c3nc3ccccc34)cc2CC1C (configuration not stated)	-11%
O=C(Nc1ccc2c(c1)CCC2)c1cc(S(=O)(=O)N2CCN(c3ccccc3)CC2)ccc1Cl	-3%
Cc1ccc(C)c(N2CCN(S(=O)(=O)c3cnc(N)nc3)CC2)c1	-9%
COc1cc(CNCC(O)c2ccccc2)ccc1OCc1ccc(Cl)nc1 (configuration not stated)	5%
C=CCn1c(SCc2c(C)noc2C)nc2sc3c(c2c1=O)CCCCC3	1%
C=CCNc1nc(Nc2ccc(OC)cc2)nc(OCC)n1	6%
COc1cc(C2SCCS2)cc(Br)c1Oc1ncccc1[N+](=O)[O-]	-12%
Cc1cc(C)cc(NC(=O)CSCc2cc(=O)n3ccsc3n2)c1	?
CS(=O)(=O)N(CC(=O)Nc1c(F)cccc1F)c1ccc(C23CC4CC(CC(C4)C2)C3)cc1	?
Cc1ccccc1NC(=O)Cn1c(SCC(=O)Nc2ccc(F)cc2)nc2ccccc21	13%
Cc1ccc(-c2nn(-c3ccccc3)cc2/C=C/C(=O)Nc2nccs2)cc1	0%
CN(C)c1cc[n+](CC(=O)c2cccs2)cc1	-6%
CCc1ccccc1NC(=O)Cn1nnc(C(=O)NCc2ccco2)c1N	-4%
C#Cc1cccc(Nc2ncnc3cc(OCCOC)c(OCCOC)cc23)c1	-8%
Cc1nonc1OC(C)CNCCNc1ccc([N+](=O)[O-])cc1 (configuration not stated)	-6%
CC1(C)CC(NS(=O)(=O)c2ccc(S(=O)(=O)N3CCOCC3)cc2)CCO1 (configuration not stated)	-2%
CCC1(COC(NC(=O)c2cccnc2)(C(F)(F)F)C(F)(F)F)COC1	-8%
O=C(OCn1nnc2ccccc2c1=O)c1ccco1	-1%
Cc1ccc(NC(=O)C(C)c2ccc(-c3ccccc3)c(F)c2)c(C)c1 (configuration not stated)	-10%
O=C(NCc1ccc2c(c1)OCO2)Oc1ccccc1	-8%
CN1CCN(S(=O)(=O)c2ccc(NC(=O)c3ccc(Br)o3)cc2)CC1	-2%
The listing continues:
SMILES	KAT2A inh
COc1ccc(C(=O)N(CCN2CCOCC2)CC(=O)NC2CCCC2)cc1OC	-14%
COc1cccc2cc(C(C)N(CCCN3CCOCC3)C(=S)Nc3c(C)cccc3C)oc12 (configuration not stated)	-6%
COCCNCC(=O)Nc1ccc(OC(F)(F)F)cc1	-15%
C#CCOCCOCCOCCNc1nc(N2CCN(C(=O)[C@H]([C@@H](C)O)n3cc(CCCCN)nn3)CC2)nc(N2CCN(C(=O)[C@H](C)n3cc(CCCN=C(N)N)nn3)CC2)n1	-2%
O=C(NCc1ccccc1Cl)c1cc(=O)[nH]c2ccccc12	-2%
C/C=C(\C)C(=O)O[C@@H]([C@H](O)c1cc2ccc(=O)oc2cc1OC)C(C)(C)O	0%
Cc1c(OCC(=O)NCc2cccnc2)ccc2c3c(c(=O)oc12)CCC3	-6%
O=C(CCN1C(=O)/C(=C/c2ccccc2Cl)SC1=S)Nc1ccccn1	-14%
COc1ccc(C(=O)N/C(=C\c2cn(C)c3ccccc23)C(=O)N2CCOCC2)cc1	-4%
CN(C)c1oc(-c2ccc(COc3ccccc3)o2)nc1C#N	-19%
CN(Cc1ccccc1)C(=O)c1ccc(NC(=O)Cc2cccc(NC(=O)C3CCCN(C(=O)C4CCCC4)C3)c2)cc1 (configuration not stated)	2%
CC(C)(C)NC(=O)c1ccc2nccnc2c1	-2%
O=C(Cc1n[nH]c(=O)c2ccccc12)Nc1cccc(S(=O)(=O)N2CCCCCC2)c1	?
N#Cc1nc(-c2ccco2)oc1NCCCn1ccnc1	1%
C=CCn1c(SCC(=O)Nc2ccc3c(c2)OCO3)nnc1-c1ccccc1	-4%
CCOC(=O)N1CCN(C(=O)Cn2ccc3ccccc3c2=O)CC1	0%
O=C(CCc1c[nH]c2ccccc12)Nc1ncccc1O	-17%
CCCn1nnc(NC(=O)c2cccc(OCC)c2)n1	-13%
O=[N+]([O-])c1ccc(N2CCOCC2)c(S(=O)(=O)N2CCOCC2)c1	-6%
CCOC(=O)c1c(S(=O)(=O)NCC(=O)NCc2ccccc2Cl)c(C)n(C)c1C	12%&13%
CCOc1ccc(CNC(=O)c2ccc3[nH]c(C)c(C)c3c2)cc1OC	?
COC(=O)C1=C(C)Nc2nnnn2C1c1cc(OC)ccc1OC (configuration not stated)	-2%
O=C(NC(=S)NCc1ccco1)c1ccccc1	1%
Cn1c(CNC(=O)c2ccc3c(c2)OCO3)nnc1SCC(=O)Nc1ccccc1F	-6%
Cc1cccc(C)c1NC(=O)CCCSc1nnc(N)s1	4%
Next records:
SMILES	KAT2A inh
COc1ccc(Cn2cnc3c4cc(F)ccc4n(C)c3c2=O)cc1	1%
O=C(Nc1nc2c(s1)CCCCCC2)Nc1ccc(F)cc1F	3%
Cc1cccc(C(=O)NCC(c2ccco2)N(C)C)c1 (configuration not stated)	-4%
COc1ccc(N2CCN(Cc3nc(-c4ccccc4)no3)CC2)cc1	-1%
COc1cccc(CNC(=O)CN2C(=O)CSc3c2c(C)nn3-c2ccccc2)c1OC	-4%
Cc1cc(C(=O)OCCN2C(=O)c3ccccc3C2=O)c2ccccc2n1	-12%
c1ccc(N2CCN(Cc3cn4cccnc4n3)CC2)cc1	-6%
O=C(NCc1ccc2c(c1)OCO2)C1CCC(CNS(=O)(=O)c2ccc(Cl)cc2)CC1 (configuration not stated)	-12%
Nc1c(C(=O)NCc2ccco2)nnn1CC(=O)Nc1ccccc1	-4%[0.501 µM]
O=C(NCc1ccccc1Cl)C1CCCN1S(=O)(=O)c1ccccc1F (configuration not stated)	-3%
CCOc1ccccc1N(CC(=O)NC1CCCCC1)S(=O)(=O)c1ccccc1	-2%
COC(=O)c1c(SC)nc2ccccc2c1OCc1ccc(Br)cc1	-2%
Cc1ccc(-c2cc(C(=O)OCC(=O)NC3CC3)c3ccccc3n2)cc1	-2%
O=C(c1ccc(CSc2nc3ccncc3[nH]2)cc1)N1CCCCC1	1%
O=C(Nc1ccc(N2CCN(C(=O)c3ccccc3)CC2)c(Cl)c1)c1cccnc1	-5%
CCC(C)(C(=O)NC1CCCCC1)N(C(=O)c1ccccn1)c1ccc(C)cc1 (configuration not stated)	-2%
Clc1ccc(Cc2nc(-c3cccnc3)no2)cc1	-14%
Cc1ccc(CCNC(=O)c2ccc3c(c2)N(Cc2cccc(F)c2)C(=O)c2ccccc2S3)cc1	-5%
C#CCSc1nnc(CNS(=O)(=O)c2ccc(Br)cc2)n1C	0%
C=CCN(CC=C)C(=O)c1cc2ccccc2c(=O)o1	-1%
Cc1cccc(C)c1NC(=O)C(=O)NCCOc1ccc(Cl)cc1	-5%
Cc1ccc(N2CCN(C(=O)c3ccccc3F)CC2)c(C)c1	-5%
N#C/C(=C\c1ccccc1)C(=O)Nc1sc2c(c1C(N)=O)CCC2	9%
CC(=O)c1cccc(NC(=O)CSc2nnnn2C2CCCC2)c1	-6%
O=C(Cc1ccc(Br)cc1)OCC(=O)N1CCOCC1	-21%
Going on with the list.
SMILES	KAT2A inh
CCOC(=O)Cn1ncc2c(=O)oc3ccccc3c21	0%
CC(=O)NCCNc1nc2c(-c3cccc(C)c3)nnn2c2ccccc12	-6%
Cn1cc(C(=O)N2CCCCC2)c(=O)c2cc(S(=O)(=O)N3CCCC3)ccc21	-6%
CCc1ccc2[nH]c(=O)c(CN(CCN(CC)CC)C(=O)Nc3ccccc3OC)cc2c1	-14%
COc1nc(N(C)S(=O)(=O)c2ccc(C)cc2)nc(C)c1Cl	-2%
CN(C)CCn1c(=S)[nH]c2ccc(Cl)cc2c1=O	-1%
c1ccc(Cn2nnnc2CN2CCCC2)cc1	-1%
Cc1ccc(OCCNS(=O)(=O)c2cccs2)cc1	-3%
Cc1cc(C)c(S(=O)(=O)N2CCCC(C(=O)NCc3ccccn3)C2)c(C)c1 (configuration not stated)	-4%
O=C(COC(=O)CN1C(=O)c2ccccc2C1=O)Nc1ncc(Cl)cc1Cl	-6%
Cc1ccc(NC2=NCC(=O)N2Cc2ccccc2)c(C)c1	-2%
CSc1nc(N)c2c(n1)OC(N)=C(C#N)C2c1cccnc1 (configuration not stated)	-1%
C#CCOCCOCCOCCNc1nc(N2CCN(C(=O)[C@H](CC(N)=O)n3cc(C(N)[C@@H](C)CC)nn3)CC2)nc(N2CCN(C(=O)[C@H](CCCCN)n3cc([C@@H](N)CC(N)=O)nn3)CC2)n1 (some centres not stated)	1%
COc1ccc(-c2nc(C#N)c(NCc3ccc(F)cc3)o2)cc1OC	-11%
Cn1ccc(NC(=O)Nc2ccc(Cl)cc2Cl)n1	-2%
COc1ccc(OC)c(NC(=O)c2ccc(OC3CSC3)cc2)c1	-8%
O=C1CCCc2c1sc1nc3n(c(=O)c21)CCCCC3	2%
Cn1cccc1Cc1nnc(SCC(=O)N2CCCCCC2)n1CCc1ccccc1	-16%
COc1ccc(Cl)cc1NC(=O)CCN1C(=O)NC(C)(C)C1=O	-2%
CCN(Cc1ccccc1)C(=O)CCCOc1ccccc1	-3%
CN(C)c1ccc(C(=S)N2CCCCC2)cc1	-5%
Nc1nnc(SCCOc2ccccc2)s1	-7%

In the list so far, 15 have an aryl thioether with sulfur outside any ring:
SMILES	KAT2A inh
CC(=O)Nc1nnc(SCC(=O)N2CCN(Cc3ccccc3)CC2)s1	4%
Cc1ccc(SCCNC(=O)/C=C/c2cccc([N+](=O)[O-])c2)cc1	-5%
Cc1[nH]c2ccccc2c1C(=O)CSc1ncn[nH]1	-1%
C=CCn1c(SCc2c(C)noc2C)nc2sc3c(c2c1=O)CCCCC3	1%
Cc1ccccc1NC(=O)Cn1c(SCC(=O)Nc2ccc(F)cc2)nc2ccccc21	13%
C=CCn1c(SCC(=O)Nc2ccc3c(c2)OCO3)nnc1-c1ccccc1	-4%
Cn1c(CNC(=O)c2ccc3c(c2)OCO3)nnc1SCC(=O)Nc1ccccc1F	-6%
Cc1cccc(C)c1NC(=O)CCCSc1nnc(N)s1	4%
COC(=O)c1c(SC)nc2ccccc2c1OCc1ccc(Br)cc1	-2%
O=C(c1ccc(CSc2nc3ccncc3[nH]2)cc1)N1CCCCC1	1%
C#CCSc1nnc(CNS(=O)(=O)c2ccc(Br)cc2)n1C	0%
CC(=O)c1cccc(NC(=O)CSc2nnnn2C2CCCC2)c1	-6%
CSc1nc(N)c2c(n1)OC(N)=C(C#N)C2c1cccnc1 (configuration not stated)	-1%
Cn1cccc1Cc1nnc(SCC(=O)N2CCCCCC2)n1CCc1ccccc1	-16%
Nc1nnc(SCCOc2ccccc2)s1	-7%
